# KCNQ2 enhance – potentiators of rat KCNQ2 potassium channel; O88943; CHO-K1 KCNQ2, FluxOR thallium flux fluorescence; active compounds read high; B-score at 10 µM; hit rate 0.54% among 310,000;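 active = fluorescence ratio B-score at least 3 SD of library B-scores, with initial fluorescence B-score within 3 SD, cut at about 5.3 in these data; same plate scores as AID 2156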;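 also: B-score of peak minus minimum over baseline fluorescence ratio after K+ and Tl+ stimulus; positive B-score means potentiation of KCNQ2 with more thallium influx and brighter signal; only the inactives scoring about 0 or higher are listed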
# Target sequence (O88943 whole entry, looked up): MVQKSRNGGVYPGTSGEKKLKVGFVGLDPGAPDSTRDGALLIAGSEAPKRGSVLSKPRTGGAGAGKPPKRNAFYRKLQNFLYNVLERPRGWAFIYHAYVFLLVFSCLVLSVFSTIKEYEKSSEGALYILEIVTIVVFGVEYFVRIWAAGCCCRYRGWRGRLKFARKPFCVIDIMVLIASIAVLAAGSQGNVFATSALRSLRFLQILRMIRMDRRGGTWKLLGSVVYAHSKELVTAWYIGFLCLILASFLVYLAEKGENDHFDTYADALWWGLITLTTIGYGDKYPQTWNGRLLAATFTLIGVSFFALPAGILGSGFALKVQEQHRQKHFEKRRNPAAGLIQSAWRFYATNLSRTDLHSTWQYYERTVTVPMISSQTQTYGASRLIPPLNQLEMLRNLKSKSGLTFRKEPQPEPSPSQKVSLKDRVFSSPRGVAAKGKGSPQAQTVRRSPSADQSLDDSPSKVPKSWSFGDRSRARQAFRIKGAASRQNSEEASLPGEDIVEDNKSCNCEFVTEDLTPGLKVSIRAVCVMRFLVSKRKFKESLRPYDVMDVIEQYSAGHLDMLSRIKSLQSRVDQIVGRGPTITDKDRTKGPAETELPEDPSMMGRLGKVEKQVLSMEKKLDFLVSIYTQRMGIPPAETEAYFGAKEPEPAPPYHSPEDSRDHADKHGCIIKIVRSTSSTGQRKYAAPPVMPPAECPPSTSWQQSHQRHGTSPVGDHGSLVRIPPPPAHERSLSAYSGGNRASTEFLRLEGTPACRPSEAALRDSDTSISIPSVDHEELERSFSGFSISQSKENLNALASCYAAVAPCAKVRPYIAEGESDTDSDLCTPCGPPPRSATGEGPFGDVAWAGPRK
# KCNQ2 enhance baseline – further read-out of KCNQ2 enhance, marked with its call; B-score; compound at 10 µM; measured here: initial fluorescence intensity artifact check;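 brightness before thallium and not channel activity; 0 = typical well and far values either way flag optical interference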
# Starred values were filed as active, the others as inactive; & = joins results of further samples.
SMILES | KCNQ2 enhance | KCNQ2 enhance baseline
COc1cccc(NC(=O)c2nc(SC)ncc2Cl)c1 | 0.34 | -1.38
CC(C)(C)N(NC(=O)c1ccccc1)C(=O)c1cccc(C(=O)N(NC(=O)c2ccccc2)C(C)(C)C)c1 | 1.71 | -0.91
Cc1ccnc(NC(=O)c2ccc(OCC3CCCO3)cc2)c1 (stereo unspecified) | 1.09 | -1.88
CN(CC(=O)Nc1ccc(F)c(F)c1)S(=O)(=O)c1cccc2cccnc12 | 1.05 | -0.22
CCN(CC)CCN1C(=O)C(O)=C(C(=O)c2cccs2)C1c1ccccn1 (stereo unspecified) | 1.33 | -0.06
CCc1nc(SCC(N)=O)c2c(=O)n(C)c(=O)n(C)c2n1 | 0.95 | 0.08
Cn1nc(C(=O)N2CCN(c3ccccc3)CC2)c2c1-c1ccccc1S(=O)(=O)C2 | 0.18 | -0.21
COc1ccc(CCNc2nc(Cl)nc(NC(C)(C)CO)n2)cc1OC | 0.56 | 0.8
Cc1cc(NC(=O)C(C)C)n(-c2nc3ccccc3s2)n1 | 0.09 | 0.87
O=C(c1cccc(C(F)(F)F)c1)C1CCCN(Cc2ccc(OCCO)cc2)C1 (stereo unspecified) | 0.3 | 1.17
Cc1ccc(Sc2ccc([N+](=O)[O-])cc2[N+](=O)[O-])nc1 | 0.62 | 1.5
CN1CCN(CC#CCC(O)(c2ccccc2)C2CCCC2)CC1 (stereo unspecified) | 0.29 | -1.43
CC(=O)c1c(N2CCN(C)CC2)[nH]c(-c2ccccc2)nc1=S | 0.6 | -1.41
CN1CCc2cc(Cl)c(O)cc2[C@@H](c2ccccc2)C1 | 2.12 | 0.09
O=C(N/N=C(\Cc1ncc[nH]1)c1ccccc1)c1cccnc1 | 0.6 | -0.05
O=C(Nc1nnc(-c2ccccn2)o1)c1ccc(Br)cc1 | 0.45 | 1.27
O=C(NCC1CCCO1)c1ccc(CS(=O)(=O)c2c(Cl)cccc2Cl)o1 (stereo unspecified) | 2 | -0.33
COc1cccc(OCC(O)CN2C(C)CCCC2C)c1 (stereo unspecified) | 0.01 | -1.04
COc1ccc(CCNC(=O)C/C(C)=N/NC(=O)C(c2ccccc2)c2ccccc2)cc1OC | 0.02 | 1.07
Cc1cc(=O)[nH]c(N2CCN(C(=O)c3ccco3)CC2)n1 | 0.38 | 3.02
Cc1nnc(N2CCCCC2)c2ccccc12 | 0.14 | 0.62
CC(NC(=O)c1cc(=O)[nH]c2ccccc12)c1ccccc1 (stereo unspecified) | 0.06 | 1.17
CCOCCCNC(=O)C1CCN(S(=O)(=O)c2c(C)noc2/C=C\c2ccc(OC)cc2)CC1 | 0.01 | 1.75
O=C(O)c1ccc(CN2CCOCC2)o1 | 0.87 | -1
O=C(CSc1n[nH]c(-c2cccs2)n1)NC1CCS(=O)(=O)C1 (stereo unspecified) | 1.12 | 1.74
COc1ccc(-c2cn3cc(C)ccc3n2)cc1F | 3.34 | 0.63
COc1cccc(Nc2c(Nc3cccc(OC)c3)c(=O)c2=O)c1 | 0.37 | 0.42
CSc1ccc(CN(C)C(=O)CNC(=O)c2ccc3c(c2)OCO3)cc1 | 0.11 | 1.27
CCNc1nc(NCc2ccccc2)nc(SCC(N)=O)n1 | 0.53 | -0.65
COC(=O)c1ccccc1N=Nc1c(N)n[nH]c1N | 0.6 | -0.13
CCOC(=O)CC(=O)NC(CC(=O)OC)c1ccc(C(C)C)cc1 (stereo unspecified) | 0.95 | -1.92
COc1ccc(-c2csc(NC(=O)c3ccccc3NS(=O)(=O)c3ccc(F)c(F)c3)n2)cc1 | 5.05 | 0.15
CC(Oc1ccc(Br)cc1)C(=O)Nc1ccc(S(=O)(=O)Nc2nccs2)cc1 (stereo unspecified) | 0.01 | -0.91
N#Cc1ccsc1NC(=O)C1CCN(S(=O)(=O)c2cccs2)CC1 | 0.66 | -0.78
C=CCOc1nc2c(c(=O)n(Cc3ccc(Cl)cc3)c(=O)n2C)n1C | 0.13 | -0.54
COc1cc(CC(=O)Nc2nc(C)cs2)cc(OC)c1OC | 1 | -1.37
CCOc1ccc(OCC)c(-c2c(=O)n(OCc3ccccc3Br)c3ccccc3[n+]2[O-])c1 | 1.03 | 0.78
COc1ccc(N2CCN(C(=O)CCNS(=O)(=O)c3ccccc3)CC2)cc1 | 1.31 | -0.07
Cc1cc(CN(C)C(=O)c2ccc(OC3CCN(Cc4ccccn4)CC3)cc2)on1 | 1.72 | 0.33
COc1ccc(/C=C/C(=O)NCCSCc2ccco2)cc1OC | 1.85 | -1.27
O=C(c1ccc(N2CCOCC2)c([N+](=O)[O-])c1)N1CCN(Cc2ccccc2)CC1 | 0.53 | 0.52
CCCCc1ccc(-c2ccc(Br)cc2)nc1 | 0.03 | -0.14
c1ccc(Nc2ccccn2)nc1 | 1.35 | -1.11
C#CCO[C@@H]1C[C@H](n2ccc(NC(=O)c3ccccc3)nc2=O)O[C@@H]1CO | 0.6 | -0.14
CCOc1ccc(C(=O)NN2CCOCC2)cc1 | 0.11 | -0.88
C#CCCOC(=O)N1C2=NC(C(=O)OC)=C(C(=O)OC)[C@@H]3N(C)c4ccccc4[C@]23C[C@H]1C(=O)OC | 1.55 | -0.05
Cc1cc(OCC(F)(F)C(F)(F)C(F)(F)C(F)(F)C(F)(F)C(F)F)nc(N)n1 | 2.27 | 1.65
Nc1cc[n+](CC(=O)c2ccccc2)cc1 | 0.46 | -1.12
O=C(NCCCN1CCCC1)c1cc2c(Cl)nc3ccccc3c2s1 | 1.61 | 1.77
CC(Oc1cc2oc(=O)c3c(c2cc1Cl)CCCC3)C(=O)NCc1cccnc1 (stereo unspecified) | 1.24 | 1.39
COc1cccc(NC(=O)CN(C)C(C)C(=O)Nc2ccc(S(=O)(=O)N3CCOCC3)cc2)c1 (stereo unspecified) | 0.07 | -0.83
C=CCOc1cccc(C2/C(=C(/O)c3ccc(F)cc3)C(=O)C(=O)N2CCN2CCOCC2)c1 (stereo unspecified) | 0.51 | 0.01
COC(=O)c1ccc(NC(=O)CCN2CCCCC2)cc1 | 0.3&1.21 | -1.68&-1.13
CCOc1ccc(NC(=O)CNC(=O)c2cccs2)cc1 | 0.18 | -1
Cc1ccc(S(=O)(=O)C2(C(=O)Nc3cccc(F)c3)CC2)cc1 | 0.9 | 0
C/C(=N/NC(=O)CN1CCN(S(=O)(=O)c2ccc(Br)cc2)CC1)c1cccnc1 | 2.47 | -3.12
Nc1nonc1-n1nnc(C(=O)N/N=C/c2cccc(Cl)c2)c1-c1ccc2c(c1)OCO2 | 2.48 | -0.8
COc1c(C)cc(NC(=O)c2ccc3c(c2)NC(=O)CO3)cc1C | 1.56 | -1.25
Cc1ccc(NC(=O)c2ccc3snnc3c2)cc1 | 2.04 | -0.74
CCOC(=O)C(CC)Sc1ccc2nnc(CCNS(=O)(=O)c3ccccc3)n2n1 (stereo unspecified) | 0.63 | -2.03

# The final 4 records of the section above come first, to join the parts:
SMILES | KCNQ2 enhance | KCNQ2 enhance baseline
Nc1nonc1-n1nnc(C(=O)N/N=C/c2cccc(Cl)c2)c1-c1ccc2c(c1)OCO2 | 2.48 | -0.8
COc1c(C)cc(NC(=O)c2ccc3c(c2)NC(=O)CO3)cc1C | 1.56 | -1.25
Cc1ccc(NC(=O)c2ccc3snnc3c2)cc1 | 2.04 | -0.74
CCOC(=O)C(CC)Sc1ccc2nnc(CCNS(=O)(=O)c3ccccc3)n2n1 (stereo unspecified) | 0.63 | -2.03
CCOC(=O)C1(Cc2cccc(OC)c2)CCN(Cc2cccnc2)CC1 | 0.58 | -0.73
Cc1noc(C)c1COc1ccc(C(=O)Nc2ncccc2O)cc1 | 0.27 | 0.81
O=C(Cc1ccccc1)Nc1nc(=O)c2ccccc2s1 | 2.68 | -0.39
CCSc1n[nH]c(=O)[nH]c1=O | 0.19 | -0.2
COc1ccc(Cl)cc1N(CC(=O)NC(C(C)C)C(C)C)S(C)(=O)=O | 1 | -3.1
Cc1ccc2nc(-c3ccc4c(c3)OCCO4)cc(C(=O)O)c2c1 | 0.79 | -0.4
Cc1ccccc1-c1cc(C(=O)N2CCCC2)c2ccccc2n1 | 0.36 | -0.21
C/C(=N/NC(=O)CNS(=O)(=O)c1ccc(C)cc1)c1cccc([N+](=O)[O-])c1 | 0.1 | -1.92
CCNC(=O)COC(=O)/C=C/c1cccc(F)c1 | 0.23 | 0.66
Cc1ccc(C(=O)N/C(=C/c2ccc(-c3ccc(Br)cc3)o2)C(=O)NC2CCS(=O)(=O)C2)cc1 (stereo unspecified) | 0.19 | 0.79
O=C1/C(=C/c2ccc(C(=O)O)cc2)CCC/C1=C\c1ccc(C(=O)O)cc1 | 0.32 | 0
CN(C)c1ccc(/C=N/NC(=O)c2nnn(-c3nonc3N)c2CN(C)c2ccccc2)cc1 | 0.27 | 0.13
Cc1ccsc1/C=C/c1ccc2cccc(O)c2n1 | 2.23 | 0.52
CCCC(=O)NC(C)c1nc2ccccc2n1C(C)C (stereo unspecified) | 0.26 | 1.28
COc1ccc(NS(=O)(=O)c2ccc(N3CCCC3)c(N)c2)cc1 | 0.94 | -0.12
CCN1CCc2c(OCc3ccc(C(=O)OC)o3)cccc2C1=O | 0.14 | -0.01
Cc1ccc(S(=O)(=O)N(C)C)cc1NC(=O)c1ccc2ccccc2n1 | 1.38 | -0.71
Cc1ccc(C(=O)c2c[nH]c3c(F)cc(F)cc3c2=O)cc1 | 1.22 | -0.78
O=C1C(=O)N(Cc2ccccc2)C(c2cccc(O)c2)/C1=C(\O)c1ccc2c(c1)OCCO2 (stereo unspecified) | 1 | -0.79
NS(=O)(=O)c1cccc(NC(=O)COC(=O)CCc2ccccc2)c1 | 1.44 | -0.82
COc1ccc(CN2CCCC2C(=O)Nc2ccc(OC)c(OC)c2)cc1OC (stereo unspecified) | 1.58 | -0.14
Cc1ccc(C(=O)NNC(=O)C2CCN(Cc3ccc(Cl)c(Cl)c3)CC2)cc1 | 0.21 | -1.35
O=C1NC(c2cn(-c3ccccc3)nc2-c2cccs2)C(C(=O)c2cccnc2)C(O)(C(F)(F)F)N1 (stereo unspecified) | 1.56 | -0.29
c1cn2cc(-c3ccc4c(c3)OCO4)nc2s1 | 0.84 | -0.98
Cc1ccccc1NC(=O)/C=C/c1cccc(C(F)(F)F)c1 | 0.34 | -0.61
COc1cc(NC(=O)C/C(C)=N/NC(=O)c2ccccn2)c(OC)cc1Cl | 1.72 | 0.16
CCOC(=O)CSc1cc(CS(C)(=O)=O)nc(-c2ccccn2)n1 | 0.46 | 1.71
O=C(Cc1ccc(Br)cc1)Nc1ccccc1N1CCCC1 | 17.9* | 0.11*
O=C(CN(C(=O)c1csnn1)c1ccccc1)NCc1ccc2c(c1)OCO2 | 0.47 | -0.01
O=C(NC1CCCCCCC1)c1ccc(S(=O)(=O)N2CCCC2)cc1 | 0.62 | 0.01
COc1cc2ccccc2cc1C(=O)NCC(c1cccs1)N(C)C (stereo unspecified) | 0.01 | -2.76
Cc1cccc(-n2ncc3c2CCCC3NC(=O)Cn2cccn2)c1C (stereo unspecified) | 1.15 | -0.17
CS(=O)(=O)N(CC(=O)NCCSCc1c(F)cccc1Cl)c1ccc2c(c1)OCO2 | 0.18 | 0.7
CCOC(=O)CCc1c(C)n(CC)c2cc(-c3ccccc3OC)nn2c1=O | 0.42 | 1.11
O=C(CCCC(=O)c1ccccc1)Nc1ccc(F)cc1 | 1.57 | 0.02
COc1ccc(CNCCCSc2ncccn2)cc1OC | 1.23 | -0.63
COc1ccc(C(=O)NNC(=S)NC(=O)c2cccc([N+](=O)[O-])c2)cc1 | 0.05 | -0.99
O=C(CN1CCCCCC1)Nc1ccc(Br)cc1[N+](=O)[O-] | 0.99 | -0.03
CN(C)CCCN1CC(=O)N2[C@@H](Cc3c([nH]c4ccccc34)C2(C)C)C1=O | 1.81 | 0.13
CCc1ccc(-c2csc3nc[nH]c(=O)c23)cc1 | 2.05 | 0.75
[S-]c1nnc(-c2ccc(Br)cc2)n1-c1ccccc1.[Zn+2] | 0.37 | -0.38
C=CCNC(=O)c1sccc1Oc1ccc(F)cc1[N+](=O)[O-] | 1.12 | 0.88
Cc1c(-c2cccs2)[n+](=O)c2c(n1[O-])CCCCC2 | 0.64 | 0.92
CCc1ccc(N2C(=O)CN(Cc3cc(OC)c(OC)c(OC)c3)C2=S)cc1 | 0.79 | -1.78
CCCCNC(=S)NNc1c(Cl)cc(Cl)cc1Cl | 0.38 | -0.02
Oc1ccc(-c2nccc(-c3ccc(Cl)cc3)n2)cc1 | 0.78 | -2.69
COc1cc(C(C)=O)ccc1OCC(O)CN1CCN(c2ccc(F)cc2)CC1 (stereo unspecified) | 0.35 | -2.66
COc1ccc2nc(NCCO)[nH]c2c1 | 0.13 | -1.13
CN(CCC1CCOCC1)C(=O)CC1C(=O)NCCN1Cc1ccccc1F (stereo unspecified) | 0.24 | 1.94
Cc1ccc(C(=O)N2CCN(c3ccc([N+](=O)[O-])c(N4CCOCC4)c3)CC2)cc1 | 2.73 | -1
Cn1c(SCC(=O)Nc2cc(Cl)cc(Cl)c2)nnc1-c1ccc2nonc2c1 | 0.03 | -0.85
Cc1ccc(NC(=O)C2CCCC2)cc1Cl | 2.36 | 2.44
CCCCC1N2CC3([N+](=O)[O-])CN1CC([N+](=O)[O-])(C2)C3(C)C (stereo unspecified) | 0.28 | 0.9
O=C(Oc1ccccc1F)c1ccc2c(=O)n3c(nc2c1)CCC3 | 0.95 | 1.48
Cc1cc(C)cc(NC(=O)CCN2C(=O)c3ccccc3C2=O)c1 | 0.84 | -1.82
Cc1ccccc1NC(=S)NCc1ccc2c(c1)cc(C)n2C | 0.03 | -0.07
Cc1ccc(NC(=O)c2ccc(OC(F)(F)F)cc2)cc1S(=O)(=O)N(C)C | 0.34 | 0.38
CCOC(=O)N1CCN(C(=O)COc2ccc3ccccc3c2Br)CC1 | 8.69* | 0.26*
CC(C)(C)c1ccc(C(=O)Nc2ccc3c(c2)C(=O)NC3=O)cc1 | 0.02 | -0.31

# Compound activity (PubChem)

# The list is partial; count on the stated rates, not on these rows.
